Compound activity: PubChem, Broad Institute
Ecoli rRNA inh – inhibits bacterial ribosomal RNA function over humanized ribosomes; E. coli WT GFP vs humanized-ribosome RFP mutants, fluorescence, 24 h; active compounds read low; DMSO median 0, no signal -100; GFP signal change (wild-type ribosome), % (no concentration beside the values); hit rate 1.6% among 350,000; AID 720706;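 active means significant combined selectivity score with lowered wild-type GFP, culture density cut under 30%, mutant RFP and density less affected; inactive means any of these conditions unmet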; further: one replicate is shown; some compounds called inactive have numbers as strong as hits
FGF22 binding – shifts melting point of recombinant human FGF22; hit rate 1.5% among 340,000; Q9HCT0; calls only at 9.99 µM; recombinant FGF22 thermal shift, SYPRO orange fluorescence; percent of sucrose octasulfate shift, DMSO zero;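 active means melting point raised past a set limit in the mean and every replicate; inconclusive means no clear call; three in four hits are not shown here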
Target sequence (Q9HCT0 whole entry, looked up): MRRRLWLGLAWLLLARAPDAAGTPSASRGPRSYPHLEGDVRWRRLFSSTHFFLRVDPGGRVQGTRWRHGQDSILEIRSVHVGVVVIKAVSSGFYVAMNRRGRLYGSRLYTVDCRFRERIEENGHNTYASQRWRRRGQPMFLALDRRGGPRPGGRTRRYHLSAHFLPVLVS
Beta cell apopt – beta cell apoptosis inhibition. INS-1E cytokine-induced death, ATP luminescence, 48 h; percent of positive-control rescue, neutral wells zero. protection from apoptosis, % (test concentration not listed). hit rate 0.8% among 300,000. AID 435005;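 active means all replicates at 75% or more, or half of them and the mean; inconclusive means half reach 75% but not the mean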;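 further: 0% = cytokine-treated negative control wells and 100% = positive control rescue; higher means more ATP so stronger rescue from cytokine killing; wells of about 40 µL received 100 nL stock; the first replicate is given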
T cruzi inh – blocks replication of Trypanosoma cruzi; hit rate 1.4% among 300,000; inhibition, % (test concentration not listed); T. cruzi beta-gal in NIH3T3, luminescence, 90 h;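 active means mean inhibition across valid replicates above about 55%, limit read from the data; inconclusive means mean below that limit but half or more replicates reach it; inactive means mean below it, under half of replicates reach it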;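 further: signal also drops with host cell toxicity which is not excluded here; 0% = plate median of DMSO wells and 100% = zero luminescence signal; higher percent means less beta-gal luminescence so fewer parasites; stock transfer was 50 nL into about 50 µL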
RanGTP-Impb inh – inhibitors of RanGTP-importin-beta interaction, primary screen, biochemical, FRET, CFP-Ran, YFP-importin-beta, homogeneous; inhibition, % (concentration not given with the values); AID 2216; hit rate 1.1% among 300,000; cell-free CFP-Ran/YFP-importin-beta FRET ratio;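 active means most replicates above 15%; inconclusive means exactly half above 15%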;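 further: 0% = DMSO wells and 100% = Ran loaded with GDP instead of GTP; wells of about 40 µL received 100 nL stock; the first replicate is given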
Calb FLC – C. albicans growth modulation with fluconazole; C. albicans CaCi-2 (fluconazole-resistant clinical isolate) + fluconazole, Alamar Blue growth, 48 h; growth inhibition, % (test concentration not listed); hit rate 0.57% among 300,000; AID 1979;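 active means most replicates above 75%; inconclusive means exactly half above 75%; inactive means most below 75%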;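 further: all wells also contain fluconazole at 8 µg/ml as a sub-toxic cotreatment; 0% = median of DMSO wells and 100% = median of geldanamycin control wells; wells of about 8 µL received 7.5 nL stock; the first replicate is given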
MLL AF4-AF9 inh – blocks AF4 peptide binding to human AF9. P42568. AlphaScreen, biotin-AF4 peptide binding to FLAG-AF9. inhibition, % at 10 µM. hit rate 0.47% among 350,000;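 active means every replicate reaching a set inhibition limit, whatever the replicate mean, cut at about 25% in these data; inconclusive means mean inhibition reaches that limit but some replicates miss it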;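 further: 0% = plate neutral control median and 100% = total signal loss; the record names both 10 and 1 µM as test concentration; the first replicate is given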
Target sequence (P42568 whole entry, looked up): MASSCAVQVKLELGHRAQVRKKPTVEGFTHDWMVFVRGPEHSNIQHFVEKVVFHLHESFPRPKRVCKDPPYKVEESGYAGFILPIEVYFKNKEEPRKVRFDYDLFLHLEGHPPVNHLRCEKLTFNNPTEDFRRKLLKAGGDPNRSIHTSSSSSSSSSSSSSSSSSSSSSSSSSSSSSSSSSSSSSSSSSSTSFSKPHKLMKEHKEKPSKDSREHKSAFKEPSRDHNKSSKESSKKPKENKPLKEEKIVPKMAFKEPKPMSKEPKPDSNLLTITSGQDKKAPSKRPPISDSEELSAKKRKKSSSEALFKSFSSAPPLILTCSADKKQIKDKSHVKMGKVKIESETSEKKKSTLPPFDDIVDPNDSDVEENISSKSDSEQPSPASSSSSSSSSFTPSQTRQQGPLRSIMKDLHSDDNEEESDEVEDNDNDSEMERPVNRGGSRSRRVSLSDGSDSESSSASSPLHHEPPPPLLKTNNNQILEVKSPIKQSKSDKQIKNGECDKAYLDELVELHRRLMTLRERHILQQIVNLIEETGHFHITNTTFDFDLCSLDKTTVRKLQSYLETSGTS
ALR H2O2 inh – human ALR oxidase inhibition via reduced H2O2 | P55789 | purified ALR, DTT oxidation, H2O2 HRP-luminol luminescence | inhibition, % (concentration not given with the values) | hit rate 3.8% among 290,000;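 active means mean and each replicate at 75% or more; inconclusive means only one of the two met; inactive means neither met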;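 further: stock transfer was 7.5 nL into about 7.5 µL; 0% = neutral wells and 100% = wells with inactivated enzyme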
Target sequence (P55789 whole entry, looked up): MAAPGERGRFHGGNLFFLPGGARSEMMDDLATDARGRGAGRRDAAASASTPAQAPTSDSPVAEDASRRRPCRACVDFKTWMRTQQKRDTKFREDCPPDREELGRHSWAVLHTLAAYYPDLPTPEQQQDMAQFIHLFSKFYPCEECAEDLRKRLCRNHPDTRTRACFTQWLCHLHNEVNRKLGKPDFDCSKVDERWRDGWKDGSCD
Ecoli rRNA inh OD600 – second read-out of Ecoli rRNA inh, no call of its own (marks repeat the call); OD600 change, %; measured here: OD600 growth;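 optical density of the mix in the first replicate; 0 = DMSO median and -100 = no signal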
Ecoli rRNA inh RFP – second read-out of Ecoli rRNA inh, no call of its own (marks repeat the call); RFP signal change, %; measured here: RFP humanized mutant strains;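 first replicate; 0 = DMSO median and -100 = no signal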
Active calls of the source: *; i = inactive; ? = inconclusive; nt = no result given; & = joins results of further samples. This is a subset, so the mix of outcomes need not match the whole.

molecule | Ecoli rRNA inh | Ecoli rRNA inh OD600 | Ecoli rRNA inh RFP | FGF22 binding | Beta cell apopt | T cruzi inh | RanGTP-Impb inh | Calb FLC | MLL AF4-AF9 inh | ALR H2O2 inh
CCCc1cc(=O)oc2cc(C)cc(OCC(=O)NCCCn3ccnc3)c12 | -4 | -4 | -4.2 | i | 7 | -18 | -1.3 | -1 | -3.6 | 0
CCNC(=O)N1CCCC(C(=O)c2ccc(C(F)(F)F)cc2)C1 (stereo not given) | 6 | 9 | 1.2 | i | nt | -5 | 2.2 | 1 | -2.4 | 2
C/C=C(\C)CN1CCC(Oc2ccc(C(=O)NCc3ccccn3)cc2)CC1 | 13 | 7 | -2.1 | i | -5 | 13 | -3.7 | 6 | -1.5 | 1
Cc1ccc(C)n1-n1c(C)nc2sc3c(c2c1=O)CCCCC3 | nt | nt | nt | nt | 3 | 2 | -3.1 | -2 | nt | 5
Cc1ccc(N(C(=O)CNC(=O)c2ccco2)C(C(=O)NC2CCCCC2)c2cccnc2)c(C)c1 (stereo not given) | 6 | 8 | -0.3 | i | -3 | -4 | 0.8 | -5 | -11 | -5
O=C(CN1C(=O)S/C(=C/c2ccncc2)C1=O)Nc1ccccc1 | 4 | 3 | 4.0 | i | -7 | -7 | -3.0 | -4 | 0.2 | 0
COCCCNC(=O)c1oc2ccc(S(=O)(=O)N3CCOCC3)cc2c1C | 2 | 4 | 0.7 | i | 5 | -1 | ? | 1 | -1.8 | -2
COc1cc2c(cc1OC)C(COc1ccc(F)cc1)N(C(C)=O)CC2 (stereo not given) | -2 | -13 | -0.5 | i | -5 | 0 | 3.0 | 5 | -3.8 | -3
COc1ccc(-c2[nH]ncc2CN2CCN(C3CCCCC3)C(=O)C2)cc1F | -3 | -2 | 4.1 | i | 0 | 7 | 2.0 | 9 | 1.2 | 9
COc1ccc2c(c1)-c1nc(/N=C/c3ccccc3O)sc1CC2 | -25 | -20 | -0.3 | i | -15 | 2 | -1.0 | -5 | 11 | nt
CC(=O)Nc1ccccc1NC(=O)c1ccccc1-c1ccccc1 | -1 | 12 | 5.1 | i | 0 | -3 | -3.9 | 10 | -0.2 | 2
O=C(CNC(=O)c1ccccc1)NC1(C(=O)NC2CCCC2)CCCCC1 | nt | nt | nt | nt | -9 | -7 | -3.4 | -6 | nt | -5
Cc1onc(-c2ccccc2)c1C(=O)Nc1cc(C(F)(F)F)ccc1N1CCOCC1 | nt | nt | nt | nt | 2 | 15 | 1.2 | ? | nt | -3
O=C(OCc1ccccc1)c1cc(S(=O)(=O)N2CCCCC2)ccc1N1CCOCC1 | -12 | -14 | 0.0 | i | 10 | 26 | 1.2 | -5 | -25 | 11
CC1=C(C(N)=O)C(c2ccccc2)n2nc(-c3ccncc3)nc2N1 (stereo not given) | nt | nt | nt | nt | nt | -7 | 4.9 | -10 | nt | -1
CCN(CC)c1ccc(/C=N/N2C(=O)c3ccccc3C2=O)c(O)c1 | 9 | 18 | 10 | i | -2 | 3 | 2.4 | 10 | -2.7 | 1
CCn1c(SCC(=O)N/N=C/c2ccc(C)o2)nnc1-c1ccc(C)cc1 | nt | nt | nt | nt | 2 | 5 | 3.5 | 29 | nt | nt
CCOC(=O)/C(C#N)=C1/SC(CC)C(=O)N1c1ccc(Br)cc1 (stereo not given) | nt | nt | nt | nt | -8 | 9 | -6.8 | -16 | nt | 51
CC1CCN(C(c2nnnn2CCc2ccccc2)C(C)C)CC1 (stereo not given) | -7 | 1 | -0.4 | i | -1 | 7 | nt | 36 | -2.3 | -12
O=C1C(Cl)=C(N2CCOCC2)C(=O)N1c1ccccc1Cl | 10 | 7 | 2.4 | i | -4 | -3 | 0.0 | 0 | 5.8 | 27
CCOc1ccc(Br)cc1S(=O)(=O)Nc1cccc(S(=O)(=O)N(C)c2ccccc2)c1 | -15 | -15 | -1.6 | i | nt | 10 | 6.3 | 11 | -16 | 0
O=C(NCc1ccncc1)c1ccc2nc(Cc3ccccc3F)oc2c1 | -12 | -14 | -0.1 | i | -6 | -8 | 2.1 | -5 | -0.7 | 4
CCOC(=O)Cn1nc(/C=C/c2ccc(C(C)C)cc2)ccc1=O | nt | nt | nt | nt | -1 | 6 | -4.7 | -11 | nt | 2
CCCCn1c(=O)[nH]c(=O)c2c1nc(-c1ccc(OC)c(Br)c1)n2CC(C)C | -3 | -34 | 9.9 | i | -2 | 29 | 2.3 | 33 | 5.2 | -6
CC1(C)C(=O)OC(c2ccc([N+](=O)[O-])cc2)C(C)(C)C1=O (stereo not given) | 8 | -1 | -6.5 | i | -3 | -1 | -0.8 | 3 | -4.1 | -38
CC(C)C1Cc2c(C#N)c(N)n(C)c(=S)c2CO1 (stereo not given) | nt | nt | nt | nt | -8 | 0 | -3.5 | 2 | nt | 6
COc1ccc(F)cc1S(=O)(=O)NCC(c1ccco1)N1CCc2ccccc2C1 (stereo not given) | -24 | -29 | -4.6 | i | nt | 14 | 5.9 | 17 | 1.4 | -1
Cc1ccnc(N/C=C(/NC(=O)c2ccccc2)C(=O)N/N=C\c2ccc(F)cc2)n1 | nt | nt | nt | nt | -2 | 10 | -1.5 | -2 | nt | nt
O=C(CSc1nnc(C2CC2)n1-c1ccccc1)N1CCNC1=O | 7 | 1 | -1.2 | i | -1 | nt | nt | nt | -5.4 | -2
Cc1ccccc1OCCC(=O)OCC(=O)NCCc1ccc(S(N)(=O)=O)cc1 | -4 | -2 | 0.2 | i | -4 | nt | nt | nt | -1.9 | -6
S=C(NCc1ccco1)Nc1ccccc1Cl | -7 | -4 | -1.8 | i | -11 | 5 | -4.1 | -6 | 2.7 | -3
Cc1noc(C)c1COc1ccccc1C(=O)N1CCN(S(=O)(=O)c2ccccc2F)CC1 | 3 | -1 | 0.6 | i | 6 | 5 | nt | 7 | 1.0 | 2
COc1ccc(OC)c(Cc2nnc(CCC(=O)NC3C4CC5CC(C4)CC3C5)o2)c1 (stereo not given) | -8 | -14 | -4.4 | i | -6 | 10 | 1.9 | -14 | -9.7 | -7
Cn1cnc(C(=O)NCc2ccccc2)c1C(=O)NCc1ccccc1 | -32* | -17* | -5.3* | i | -1 | nt | nt | nt | 0.1 | -9
CCCC(=O)Nc1sc(C)c(-c2ccc(OC)cc2)c1C#N | nt | nt | nt | nt | 3 | -2 | -0.1 | -5 | nt | nt
NNC(=S)Nc1cccc(Cl)c1 | -12 | -7 | 7.6 | i | 0 | 2 | 3.9 | 92* | 5.6 | -4
Cc1ccccc1C(=O)Nc1cccc(C(=O)N/N=C/c2ccccn2)c1 | -13 | 0 | 5.2 | i | nt | -4 | 5.9 | -4 | 4.1 | 1
CCOC(=O)Cn1cc(-c2ccccc2)nn1 | nt | nt | nt | nt | -8 | -10 | -0.8 | 14 | nt | -11
CCOC(=O)c1c(NC(=O)CC2SC(N)=NC2=O)sc2c1CCCC2 (stereo not given) | nt | nt | nt | nt | -1 | 15 | -1.4 | 21 | nt | ?
N=C1/C(=C/c2ccc(-c3cccc(C(=O)O)c3)o2)C(=O)N=C2SC(CC(=O)N3CCOCC3)=NN12 | 0 | 3 | 0.9 | i | -8 | -4 | -1.7 | 2 | -11 | 8
COCCn1c(COc2ccc(C)cc2)nc2ccccc21 | nt | nt | nt | nt | -1 | 4 | 0.7 | -40 | nt | -6
COc1cc(C)c(CN2CCC(Cc3ccccc3)CC2)cc1C | -23 | -20 | -0.3 | i | -5 | 26 | -2.2 | 6 | 5.1 | -6
Cc1ccc(-c2nnc(SCC(=O)O)n2N)cc1 | nt | nt | nt | nt | -5 | -16 | -1.3 | 9 | nt | -4
CCCc1ccc2oc(C(=O)NCCCN3CCOCC3)c(C)c2c1 | -7 | -9 | -0.3 | i | 2 | 46 | 0.8 | -11 | 0.7 | -1
CCN(CC)CCNc1ccc(CO)c2sc3ccccc3c(=O)c12 | -21 | -35 | -0.3 | i | 40 | 64* | -2.0 | nt | 12&10 | 47
O=C(O)c1ccccc1CSc1nc2ccccc2[nH]1 | 7 | -1 | -1.1 | i | -6 | nt | 3.6 | 3 | -1.7 | nt
CCOC(=O)C1C(c2cccc(F)c2)NC(=S)NC1(O)C(F)(F)F (stereo not given) | nt | nt | nt | nt | -3 | -24 | 1.7 | -1 | nt | nt
Cc1cc2n(c(=O)c1C#N)CCCN2c1ccccc1 | 21 | 15 | 2.4 | nt | nt | -10 | -3.1 | -12 | nt | -2
C/C=C(/C)C(=O)OC1Cc2c(ccc3ccc(=O)oc23)OC1(C)C (stereo not given) | nt | nt | nt | i | nt | 6 | -2.5 | 6 | -13 | -23
CCC(=O)OCCNc1cc(Sc2nccn2C)c2nonc2c1[N+](=O)[O-] | nt | nt | nt | nt | -1 | 55* | ? | 27 | nt | 97*
COc1ccc(NC(=O)CN2C(=O)NC(c3ccccc3)(c3ccccc3)C2=O)cc1OC | -10 | -15 | 1.6 | i | -8 | 0 | 31* | 0 | 0.8 | -2
CCOc1ccc(N(CC(=O)N2CCN(c3ccccc3)CC2)S(=O)(=O)c2c(C)noc2C)cc1 | -7 | -4 | -3.2 | i | -5 | 6 | -14 | 6 | 2.4 | -130
N#Cc1ccc(S(=O)(=O)N2CCN(c3ncccn3)CC2)cc1 | 2 | 2 | -1.6 | i | -4 | -20 | 0.8 | -12 | -1.7 | 0
COc1ccc(N2CCN(C(=O)c3ccc4c(c3)NC(=O)C(CSCc3ccc(C)cc3)N4)CC2)cc1 (stereo not given) | nt | nt | nt | nt | -1 | -22 | -0.3 | 2 | nt | 11
COCCSc1nnc(NC(=O)Cc2ccc(OC)c(OC)c2)s1 | -16 | -7 | -1.4 | i | -6 | -6 | 0.8 | -5 | -1.6 | -20
O=C(COc1ccc(C(=O)c2ccccc2)cc1)NCC(=O)Nc1ccccc1Br | -1 | -8 | 0.5 | i | -3 | -2 | 1.5 | 12 | -0.7 | -15

New compounds follow.
molecule | Ecoli rRNA inh | Ecoli rRNA inh OD600 | Ecoli rRNA inh RFP | FGF22 binding | Beta cell apopt | T cruzi inh | RanGTP-Impb inh | Calb FLC | MLL AF4-AF9 inh | ALR H2O2 inh
CCOc1ccc(-n2c(=O)c3sccc3n(CC(=O)NCCc3ccc(OC)c(OC)c3)c2=O)cc1 | 4 | 4 | -3.5 | i | 1 | -13 | -1.4 | 5 | 0.3 | nt
CCc1ccn2cc(-c3ccc4c(c3)OCO4)nc2c1 | -26* | -9.1* | -7.8* | i | 21 | 4 | -10 | 0 | -1.5 | -13
Cc1ccc(C)c(N2CCN(CCCNC(=O)Cn3c(=O)c4cccn4c4cccnc43)CC2)c1 | 1 | -1 | 4.3 | i | 8 | 14 | -1.5 | -15 | -9.1 | 1
COc1cc(C(=O)Oc2ccc(/C=N/NC(=O)c3ccncc3)cc2)cc(OC)c1OC | 7 | 0 | 7.4 | i | -2 | -9 | 0.0 | -19 | -21 | 24
